Screens deposited in PubChem BioAssay by several laboratories.
Insulin prom inh – inhibitors of insulin promoter-driven GFP, primary screen, imaging, TRM-6 cells (human fetal islet line), eGFP reporter, cell count | reporter expression induced with tamoxifen | inhibition, % at 2 µM | 130,000 tested, 0.9% active | AID 1273, 2008;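 active means inhibition above the mean plus 3 SD, with well images judged a real hit on visual review, cut at about 60% in these data, passing the limit was not always enough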
HSV augment – enhancers of HSV replication in host cells, fold increase, host cell viability; AID 1956, 2009; HSV replication augmentation in cells; maximum fold increase; 220,000 tested, 0.005% active;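 active means peak rise of 1.5-fold or more in the series; tested in PC3 cells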;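 further: first round at 10 µM; read as green reporter fluorescence; hits show the peak of a series up to 25 µM; 1 = signal of infected wells without compound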
GALR2 ag – GALR2 receptor agonists, primary screen, cell-based; activation, %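 (tested at 5 µM)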; 140,000 tested, 0.48% active; GALR2-expressing cells, agonist activation read-out; AID 803, 2007; Galanin receptor type 2 (Homo sapiens), O43603;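 active means above mean plus 3 SD of all compounds, about 5% in these data, not always enough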;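 further: 0% = vehicle buffer wells and 100% = reference agonist at full effect; tested in CHO reporter cells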
Target sequence (O43603 whole entry, looked up): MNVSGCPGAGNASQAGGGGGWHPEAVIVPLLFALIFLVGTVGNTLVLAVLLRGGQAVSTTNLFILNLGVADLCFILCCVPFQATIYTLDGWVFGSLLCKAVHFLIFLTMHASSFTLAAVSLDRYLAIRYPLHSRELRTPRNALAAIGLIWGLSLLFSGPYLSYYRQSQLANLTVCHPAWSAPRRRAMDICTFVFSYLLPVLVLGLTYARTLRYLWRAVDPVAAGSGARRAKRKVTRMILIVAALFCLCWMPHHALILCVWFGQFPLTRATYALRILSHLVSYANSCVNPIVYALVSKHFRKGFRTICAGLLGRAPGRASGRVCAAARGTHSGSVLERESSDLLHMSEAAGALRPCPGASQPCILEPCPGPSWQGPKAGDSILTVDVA
PKD1 inh – inhibitors of human PKD1 kinase, biochemical, fluorescence polarization; PKD1 kinase fluorescence polarization assay; inhibition, %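 (about 10 µM by stock and volumes)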; 200,000 tested, 0.056% active; AID 797, 2007;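 active means inhibition of 50% or more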;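 further: controls were vehicle for no effect and a reference inhibitor for full effect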
RGS16-Gao – modulators of RGS16 binding to Galphao, primary screen, biochemical, human proteins, multiplexed bead flow cytometry. 220,000 tested, 0.38% active. bead-based flow cytometry RGS16-Galphao binding, fluorescence; actives lie on both sides. AID 1441, 2008. binding response (% of control), % at 10 µM. Regulator of G-protein signaling 16 (Homo sapiens) + Guanine nucleotide-binding protein …;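 active means below 25% or above 175%, edge rows of some plates excepted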;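 further: Galphao activated by GDP with aluminum fluoride before binding; 100% = wells without compound and 0% = beads without RGS; some results beyond the cut were filed as inactive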
Target sequence (O15492 whole entry, looked up): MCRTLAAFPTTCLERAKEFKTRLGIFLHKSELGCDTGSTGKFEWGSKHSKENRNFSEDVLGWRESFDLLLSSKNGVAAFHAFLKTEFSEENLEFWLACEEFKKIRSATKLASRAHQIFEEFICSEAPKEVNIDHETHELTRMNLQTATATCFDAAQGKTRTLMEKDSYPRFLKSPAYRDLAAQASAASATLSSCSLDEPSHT
Target sequence (P09471 whole entry, looked up): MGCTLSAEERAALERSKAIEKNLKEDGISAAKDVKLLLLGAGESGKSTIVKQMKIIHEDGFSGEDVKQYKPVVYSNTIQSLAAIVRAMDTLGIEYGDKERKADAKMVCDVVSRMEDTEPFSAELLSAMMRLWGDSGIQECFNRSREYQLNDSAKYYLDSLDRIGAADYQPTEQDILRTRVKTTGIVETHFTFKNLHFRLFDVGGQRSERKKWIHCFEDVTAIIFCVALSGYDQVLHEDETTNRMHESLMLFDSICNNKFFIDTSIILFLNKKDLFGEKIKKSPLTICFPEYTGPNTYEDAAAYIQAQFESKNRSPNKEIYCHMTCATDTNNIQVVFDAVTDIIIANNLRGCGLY
Insulin prom inh cell count – recorded beside Insulin prom inh, whose call it bears; normalized cell count, %; measured here: cell count, toxicity; reference of the scale not given here;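 cells exposed to compound for 48 h; stained nuclei by imaging scaled within each plate; lower means fewer cells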
HSV augment primary fold – also measured in HSV augment; calls as there; fold increase; compound at 10 µM; measured here: primary screen fold increase 10 uM; tested in PC3 cells;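 GFP signal in the first replicate; 1 = infected wells without compound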
* = called active by the depositor; i = inactive; nt = no result given; [ ] = remark or other dose.

Keys – A = Insulin prom inh; B = Insulin prom inh cell count; C = HSV augment; D = HSV augment primary fold; E = GALR2 ag; F = PKD1 inh; G = RGS16-Gao
O=C(c1ccccc1)N1CCN(C(=O)N2CCOCC2)CC1
  A: 49 | B: 123 | C: i | D: 0.82 | E: -3.3 | F: -8 | G: 102
O=C(N/N=C/c1cccc([N+](=O)[O-])c1)c1cc2c(ccc3ccccc32)o1
  A: nt | B: nt | C: nt | D: nt | E: -3.0 | F: 1 | G: 97
CC(C)CN(C(=O)CN1CCc2ccccc21)c1c(N)n(CC(C)C)c(=O)[nH]c1=O
  A: nt | B: nt | C: i | D: 1.5 | E: nt | F: -6 | G: 103
O=C(N/N=C/c1c(F)c(F)c(F)c(F)c1F)c1cccc(S(=O)(=O)N2CCOCC2)c1
  A: nt | B: nt | C: i | D: 0.86 | E: nt | F: -3 | G: 89
NC(=O)COC(=O)c1ccc(NS(=O)(=O)c2ccc3c(c2)OCCO3)cc1
  A: nt | B: nt | C: i | D: 1.1 | E: nt | F: nt | G: 102
Cc1nc2nc(SCC(=O)c3ccccc3)[nH]c2cc1Br
  A: nt | B: nt | C: i | D: 0.98 | E: nt | F: nt | G: 94
COc1ccc(Nc2n[nH]c(N)c2C(N)=O)cc1
  A: nt | B: nt | C: i | D: 0.75 | E: nt | F: -2 | G: 96
O=C(NCC1CCCO1)C(c1cccs1)N(Cc1ccccc1Cl)C(=O)c1ccc(-c2ccccc2)[nH]1 (centres undefined)
  A: -46 | B: 36 | C: i | D: 0.82 | E: -1.3 | F: -11 | G: 178*[activator]
Cc1ccc(C2NC(c3ccc(C)cc3)C([N+](=O)[O-])C(C)(C)C2[N+](=O)[O-])cc1 (centres undefined)
  A: nt | B: nt | C: i | D: 1.1 | E: -1.0 | F: -5 | G: 105
CCNc1nc(SC(C)C(=O)OC)nc(N(C)C)n1 (centres undefined)
  A: 33 | B: 80 | C: i | D: 0.96 | E: nt | F: 5 | G: 105

Keys – A = Insulin prom inh; B = Insulin prom inh cell count; C = HSV augment; D = HSV augment primary fold; E = GALR2 ag; F = PKD1 inh; G = RGS16-Gao
CCC(=O)Nc1ccc(NC(=O)CSc2nnnn2C(C)C)cc1
  A: -24 | B: 223 | C: i | D: 0.69 | E: -1.7 | F: -2 | G: 99
COc1ccc(C(=O)n2nc(C#N)c(C#N)c2N)cc1
  A: nt | B: nt | C: i | D: 0.97 | E: nt | F: nt | G: 97
CCCn1nnc(NC(=O)c2ccccc2Cl)n1
  A: -10 | B: 118 | C: nt | D: nt | E: 0.1 | F: 0 | G: 99
COc1ccccc1N(CC(=O)Nc1ccccc1C(=O)NCC(C)C)S(C)(=O)=O
  A: -206 | B: 36 | C: i | D: 0.79 | E: -0.8 | F: -7 | G: 78
O=C(c1ccccc1)c1c[nH]c(C(=O)NNc2cccc(Cl)n2)c1
  A: nt | B: nt | C: i | D: 0.93 | E: nt | F: 1 | G: 104
Cn1c(=O)c2c(-c3ccccc3)n(Cc3ccccn3)cc2n(C)c1=O
  A: nt | B: nt | C: i | D: 1 | E: 0.4 | F: 16 | G: 93
S=C(Nc1ccccc1)N1CCN(Cc2ccccc2)CC1
  A: nt | B: nt | C: i | D: 0.92 | E: nt | F: nt | G: 96
COCCNC(=O)CN(C(=O)Cn1nnc2ccccc21)c1ccc(C)cc1
  A: nt | B: nt | C: i | D: 0.94 | E: nt | F: 3 | G: 101
Cc1cc(C)n2nc(SCc3nnc(-c4ccc(F)cc4)o3)nc2n1
  A: -11 | B: 105 | C: i | D: 0.94 | E: nt | F: -9 | G: 107
NC(=O)NOCc1c(Cl)cccc1Cl
  A: nt | B: nt | C: i | D: 0.94 | E: nt | F: -4 | G: 102

Keys – A = Insulin prom inh; B = Insulin prom inh cell count; C = HSV augment; D = HSV augment primary fold; E = GALR2 ag; F = PKD1 inh; G = RGS16-Gao
O=C(CSc1nc(O)cc(=O)[nH]1)N1CCCc2ccccc21
  A: 15 | B: 82 | C: i | D: 0.95 | E: -0.2 | F: -14 | G: 98
N=C1SCC(=O)N1/N=C/c1ccccc1
  A: -7 | B: 109 | C: i | D: 0.79 | E: nt | F: -4 | G: 99
O=C(NCc1ccc(Cl)cc1)C1CCN(S(=O)(=O)c2ccccc2)CC1
  A: nt | B: nt | C: i | D: 1 | E: nt | F: -10 | G: 111
COc1ccc(Cl)cc1N(CC(=O)Nc1cccc(SC)c1)S(C)(=O)=O
  A: 52 | B: 59 | C: i | D: 1 | E: -0.2 | F: 1 | G: 104
Cc1nc2cc(NC(=O)NCc3ccco3)ccc2n1C
  A: 14 | B: 81 | C: i | D: 0.96 | E: -1.7 | F: -11 | G: 212
COCc1cc(C)n(CC(=O)N2CCCC2)c(=O)c1C#N
  A: 16 | B: 135 | C: i | D: 1.1 | E: nt | F: -1 | G: 97
C=CCn1c(=NC(=O)c2ccc(S(=O)(=O)N3CCCC3)cc2)sc2cc(NC(C)=O)ccc21
  A: -44 | B: 115 | C: i | D: 0.87 | E: -1.1 | F: 1 | G: 102
CCCc1c(C(=O)Nc2ccc(F)cc2F)cnn1-c1ccccc1
  A: nt | B: nt | C: i | D: 0.82 | E: nt | F: nt | G: 104
CC1(C)CC(=O)C(N=Nc2c(F)cccc2F)=C(O)C1
  A: nt | B: nt | C: i | D: 0.99 | E: nt | F: nt | G: 100
Cc1c(/C=N/NC(=O)c2ccc(Br)o2)cnn1C
  A: nt | B: nt | C: i | D: 0.95 | E: nt | F: nt | G: 101

Below each SMILES: Insulin prom inh | Insulin prom inh cell count | HSV augment | HSV augment primary fold | GALR2 ag | PKD1 inh | RGS16-Gao
> Cc1ccc(-c2nnc(SCC(=O)N/N=C/c3ccccc3C(=O)O)n2-c2ccc(C)cc2)cc1
  nt | nt | i | 0.96 | nt | nt | 93
> CCCCCN=Cc1c(C)[nH]n(-c2nc3ccccc3s2)c1=O
  45 | 143 | i | 0.66 | 0.7 | -2 | 102
> C/C(=N\OCC(=O)Nn1c(C)nc2ccccc2c1=O)c1cccs1
  nt | nt | i | 1 | nt | nt | 102
> O=C(CN1CCN(Cc2ccccc2Cl)CC1)N=Nc1c(O)[nH]c2ccccc12
  -4 | 100 | i | 0.99 | 0.7 | -1 | 105
> Cc1ccc(C(C(=O)NC2CCCC2)N2CCc3ccccc32)cc1 (centres undefined)
  nt | nt | i | 1.1 | -1.6 | -6 | 107
> CCOC(=O)CSc1nc(N)c(C#N)cc1C#N
  50 | 46 | i | 0.96 | 0.4 | -1 | 115
> O=C(COC(=O)CCc1ccccc1)Nc1ccccc1OC(F)F
  nt | nt | i | 1 | nt | nt | 101
> CCCc1nnc(SCC(=O)N2CCOCC2)n1CC1CCCO1 (centres undefined)
  36 | 141 | i | 0.89 | nt | 0 | 103
> O=C(Nc1ccccc1)c1ccc(NCC2CCCO2)c([N+](=O)[O-])c1 (centres undefined)
  nt | nt | i | 0.95 | 0.1 | -1 | 99
> CCC(C)/C(C)=N/NC(=O)c1ccc(CSc2nc3ccccc3s2)cc1 (centres undefined)
  100* | 0.0* | i | 1 | -0.6 | 2 | 109

Below each SMILES: Insulin prom inh | Insulin prom inh cell count | HSV augment | HSV augment primary fold | GALR2 ag | PKD1 inh | RGS16-Gao
> Cc1cccc(NC(=O)N(Cc2cc3cc(C)cc(C)c3[nH]c2=O)CC2COCCO2)c1 (centres undefined)
  0 | 94 | i | 1 | 0.2 | -1 | 402
> CN(C)C(=O)CCC(=O)N1CCCC(C(=O)c2ccc3c4c(cccc24)CC3)C1 (centres undefined)
  nt | nt | i | 1 | nt | 2 | 106
> Cc1ccc(S(=O)(=O)N2CCc3ccccc3C2CN2C(=O)c3ccccc3C2=O)cc1 (centres undefined)
  39 | 101 | i | 1.1 | -0.8 | -15 | 104
> COc1ccccc1-c1nnc(SCC(=O)NC2CCCCC2)o1
  nt | nt | i | 1 | -0.4 | -8 | 107
> N/C(Cc1ccc(Cl)cc1Cl)=N\OC(=O)c1ccc(Br)o1
  nt | nt | i | 0.92 | nt | nt | 96
> O=C(CSc1ncnc2c1cnn2-c1ccc(F)cc1)NCc1ccc2c(c1)OCO2
  -22 | 105 | i | 0.99 | 0.3 | 0 | 103
> CCOC(=O)C(C)(C)n1nnc(-c2ccc([N+](=O)[O-])cc2)n1
  nt | nt | i | 1.2 | nt | 0 | 101
> CCC(=O)NC(=S)Nc1ccc(NC(=O)c2ccco2)c(Cl)c1
  nt | nt | i | 1.1 | nt | 0 | 102
> Cc1nc(N=C(N)N)nc2c(C)cccc12
  nt | nt | i | 0.7 | nt | -2 | 97
> Cc1ccc(OCCNc2cc(N3CCN(CCO)CC3)ccc2[N+](=O)[O-])cc1C
  -50 | 79 | i | 0.72 | 0.3 | 23 | 92

Below each SMILES: Insulin prom inh | Insulin prom inh cell count | HSV augment | HSV augment primary fold | GALR2 ag | PKD1 inh | RGS16-Gao
> CC(Oc1ccc(Cl)cc1Cl)c1ccnc2nc(N3CCOCC3)nn12 (centres undefined)
  nt | nt | i | 0.87 | nt | -3 | 101
> CCOC(=O)C1=C(C)NC(C)=C(C(=O)OCC)C1C(=O)OCC(=O)NC(C)C
  -5 | 73 | i | 0.93 | -2.0 | 1 | 100
> COc1ccccc1N1CCN(C(=O)c2cc(-c3cccc(Cl)c3)on2)CC1
  nt | nt | i | 1.1 | -4.1 | 1 | 102
> CCOC(=O)c1sc2ncnc(OC)c2c1C
  -75 | 81 | i | 0.92 | 0.0 | 11 | 104
> O=C(O)c1ccc(-c2ncc[nH]2)cc1
  80* | 41* | i | 0.91 | nt | 0 | 101
> Cc1ccc(S(=O)(=O)C(C)C(=O)c2ccc3c(c2)OCCO3)cc1 (centres undefined)
  30 | 157 | i | 0.93 | -1.9 | -3 | 99
> Cc1ccc(-c2nc3cccnc3s2)cc1NS(=O)(=O)c1cccs1
  nt | nt | i | 0.79 | nt | -1 | 119
> COc1ccc(Oc2coc3c(CN4CCOCC4)c(O)ccc3c2=O)cc1
  nt | nt | i | 0.89 | -0.6 | 7 | 108
> Cc1cccc(Nc2nc(NCc3ccco3)nc(N3CCOCC3)n2)c1
  -9 | 94 | i | 0.69 | -0.2 | -13 | 105
> Cc1ccccc1C(C(=O)NCc1ccco1)N(CC1CCCO1)C(=O)Cn1nnc2ccccc21 (centres undefined)
  nt | nt | i | 0.87 | -0.9 | 1 | 98

Below each SMILES: Insulin prom inh | Insulin prom inh cell count | HSV augment | HSV augment primary fold | GALR2 ag | PKD1 inh | RGS16-Gao
> C=CCn1cc(-c2cccc(C(F)(F)F)c2)cc(C#N)c1=O
  nt | nt | i | 0.93 | nt | 7 | 100
> Cc1nc(=O)c(-c2ccccc2)c(C)n1CCCCCC(=O)O
  -19 | 71 | i | 1.1 | -0.6 | 0 | 114
> CCC(=O)Nc1cccc2c1C(=O)N(C)C2=O
  69 | 91 | i | 1.1 | -1.2 | -12 | 101
> CCc1cc2c(=O)[nH]c(COC)nc2s1
  -107 | 65 | i | 0.96 | -1.4 | -10 | 100
> CC(c1cc2ccccc2s1)N(O)C(N)=O (centres undefined)
  nt | nt | i | 0.91 | nt | nt | 98
> CC(NC(=O)COC(=O)c1ccc(N(C)C)cc1)c1ccccc1 (centres undefined)
  nt | nt | i | 0.94 | nt | 0 | 104
> CCc1nnc(NC(=O)CSc2nnc3c4ccccc4n(C)c3n2)s1
  -33 | 78 | i | 0.86 | -0.1 | 4 | 96
> CCOC(=O)C(NC(=O)NC1CCCCC1)(c1ccccc1)C(F)(F)F (centres undefined)
  -34 | 75 | i | 0.8 | -0.7 | 2 | 81
> CCOP(=O)(c1ccccc1)c1nc(-c2ccccc2Cl)oc1N1CCCCC1 (centres undefined)
  -3 | 95 | i | 1 | 2.6 | -9 | 39
> CCc1noc(C)c1C(=O)N1CCCC(C(=O)c2ccc(OC)c(F)c2)C1 (centres undefined)
  nt | nt | i | 0.92 | nt | 1 | 106

This is a random part of the collection; about 1.3% have a hit in one of these screens.
